Assay outcomes deposited in PubChem by several laboratories.
Insulin prom inh: TRM-6 insulin promoter activity inhibition; TRM-6 cells (human fetal islet line), insulin promoter-eGFP reporter, imaging; reporter expression induced with tamoxifen; inhibition, % at 2 µM; 0.9% of 130,000 active;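 active = inhibition above the mean plus 3 SD, with well images judged a real hit on visual review, cut at about 60% in these data, passing the limit was not always enough; inconclusive = inhibition over the cutoff but images rejected on review; inactive = inhibition not above the cutoff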
GALR2 ag: agonists of human galanin receptor 2 (GALR2) | 0.48% of 140,000 active | GALR2-expressing cells, agonist activation read-out | activation, %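 (tested at 5 µM)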 | O43603 | AID 803;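 active = above mean plus 3 SD of all compounds, about 5% in these data, not always enough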;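 also: 0% = vehicle buffer wells and 100% = reference agonist at full effect; tested in CHO reporter cells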
Target sequence (O43603 whole entry, looked up): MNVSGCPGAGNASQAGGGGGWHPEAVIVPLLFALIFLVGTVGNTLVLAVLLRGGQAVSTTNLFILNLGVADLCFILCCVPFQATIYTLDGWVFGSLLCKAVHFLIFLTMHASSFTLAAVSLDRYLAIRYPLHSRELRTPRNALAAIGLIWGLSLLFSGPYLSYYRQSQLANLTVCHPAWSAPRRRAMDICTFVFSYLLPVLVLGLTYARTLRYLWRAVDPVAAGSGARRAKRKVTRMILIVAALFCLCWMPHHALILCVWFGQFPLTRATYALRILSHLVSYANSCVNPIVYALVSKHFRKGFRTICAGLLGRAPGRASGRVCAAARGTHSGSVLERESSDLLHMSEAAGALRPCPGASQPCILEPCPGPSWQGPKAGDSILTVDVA
PKD1 kinase inh: inhibitors of human PKD1 kinase; PKD1 kinase fluorescence polarization assay; inhibition, %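 (about 10 µM by stock and volumes)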; AID 797; 0.056% of 200,000 active;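 active = inhibition of 50% or more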;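 also: controls were vehicle for no effect and a reference inhibitor for full effect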
RGS16-Gao HTS: RGS16-Galphao interaction regulator (human); AID 1441; bead-based flow cytometry RGS16-Galphao binding, fluorescence; actives lie on both sides; binding response (% of control), % at 10 µM; 0.38% of 220,000 active;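 active = below 25% or above 175%, edge rows of some plates excepted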;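 also: Galphao activated by GDP with aluminum fluoride before binding; 100% = wells without compound and 0% = beads without RGS; some results beyond the cut were filed as inactive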
Target sequence (O15492 whole entry, looked up): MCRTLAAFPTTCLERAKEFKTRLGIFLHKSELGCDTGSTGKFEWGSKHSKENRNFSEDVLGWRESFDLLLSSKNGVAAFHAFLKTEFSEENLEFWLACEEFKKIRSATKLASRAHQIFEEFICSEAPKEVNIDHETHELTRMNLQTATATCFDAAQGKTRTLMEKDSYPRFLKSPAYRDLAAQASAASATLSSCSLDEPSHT
Target sequence (P09471 whole entry, looked up): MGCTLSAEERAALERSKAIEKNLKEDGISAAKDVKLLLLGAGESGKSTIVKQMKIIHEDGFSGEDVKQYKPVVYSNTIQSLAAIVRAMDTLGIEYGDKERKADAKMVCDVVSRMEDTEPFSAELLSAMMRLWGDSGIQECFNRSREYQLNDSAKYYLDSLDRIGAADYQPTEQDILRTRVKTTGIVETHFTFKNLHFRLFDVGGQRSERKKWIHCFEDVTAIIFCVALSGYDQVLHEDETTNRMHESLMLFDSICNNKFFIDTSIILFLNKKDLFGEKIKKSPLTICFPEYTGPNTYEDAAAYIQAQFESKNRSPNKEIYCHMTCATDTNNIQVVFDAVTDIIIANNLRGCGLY
HSV augment: HSV replication enhancement. HSV replication augmentation in cells, fold increase. maximum fold increase. 0.005% of 220,000 active. AID 1956;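 active = peak rise of 1.5-fold or more in the series; inconclusive = self-fluorescent or not available for retest; tested in PC3 cells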;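 also: first round at 10 µM; read as green reporter fluorescence; hits show the peak of a series up to 25 µM; 1 = signal of infected wells without compound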
Insulin prom inh cell count: further read-out of Insulin prom inh, marked with its call; normalized cell count, %; measured here: cell count, toxicity; reference of the scale not given here;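 cells exposed to compound for 48 h; stained nuclei by imaging scaled within each plate; lower means fewer cells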
HSV augment primary fold: further read-out of HSV augment, marked with its call; fold increase; compound at 10 µM; measured here: primary screen fold increase 10 uM; tested in PC3 cells;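 GFP signal in the first replicate; 1 = infected wells without compound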
* marks the source's active call; other numbers are inactive results; i = inactive; ? = inconclusive; / = not tested or not shown.

Compound,Insulin prom inh,PKD1 kinase inh,Insulin prom inh cell count,HSV augment,HSV augment primary fold,RGS16-Gao HTS,GALR2 ag
COC(=O)C1=[N+]([O-])OC(C(=O)OC)C1c1c[nH]c2ccccc12 (centres undefined),/,-10,/,i,0.84,103,-0.7
CCCCC(=O)NN(C)c1nc(-c2ccccc2)nnc1C(F)(F)F,64,-4,139,i,0.83,103,-2.8
CCOc1ccc(-c2ccc(SCC(=O)Nc3nnc(CC)s3)nn2)cc1,/,-3,/,i,1,102,/
Cc1c(Cl)cccc1NC(=S)NCc1ccc(Cl)cc1,14,-2,153,?,/,/,-0.8
O=C(CNS(=O)(=O)c1cccs1)N1CCN(c2ccccn2)CC1,21,-13,121,i,0.94,102,-4.6
CCn1c2ccccc2c2nnc(SCC(=O)N3CC(C)OC(C)C3)nc21 (centres undefined),/,7,/,i,0.86,104,0.8
COC(=O)c1ccc2nc(C)c(C)nc2c1,-12,-5,117,i,0.92,98,-1.7
CC(=O)n1nc(-c2ccco2)nc1N,-31,-1,126,i,0.96,97,-0.3
O=C(NCCO)/C(=C/c1cccc([N+](=O)[O-])c1)NC(=O)c1ccco1,5,1,120,i,1,112,/
Cc1c(Cl)cccc1N(CC(=O)NC1CCCCC1)S(C)(=O)=O,/,-7,/,i,1,99,-1.8
Cc1ccc(CN2CCN(Cc3cccn3-c3ccc(Cl)cn3)CC2CCO)o1 (centres undefined),/,-7,/,i,1,97,/
O=C(O/N=C1/CCSc2ccccc21)c1ccccc1,-63,-10,86,i,0.86,101,-1.2
Cc1cc(NC(=O)CCC(=O)N(Cc2ccco2)C2(C(=O)NC3CCCCC3)CCN(C)CC2)no1,-38,3,62,i,0.8,100,-2.9
CCc1nc(SCc2ccc(F)cc2)[nH]c(=O)c1C#N,31,0,152,i,1,88,-3.3
O=C(COC(=O)c1ccc2c(c1)OCO2)NCc1ccc(Cl)cc1,15,0,81,i,0.87,113,-1.0
COc1cccc(CC2(CO)CCN(CC3=CC[C@H]4C[C@@H]3C4(C)C)CC2)c1,-94,-7,79,i,0.8,102,/
O=C(NNC(=O)C12CC3CC(CC(C3)C1)C2)[C@@H]1C[C@H]1c1ccccc1,-7,-2,147,i,0.97,99,/
Cc1cccn2c(=O)c3cc(C#N)c(=N)n(Cc4cccnc4)c3nc12,-36,0,84,/,/,/,1.5
COc1cc([C@H]2c3[nH]c4ccccc4c3C[C@H]3C(=O)N4[C@@H](c5cc(OC)c(OC)c(OC)c5)c5[nH]c6ccccc6c5C[C@H]4C(=O)N23)cc(OC)c1OC,45,-10,81,i,0.51,102,9.6*
CCS(=O)(=O)c1ccc2oc(Nc3ccccc3C)nc2c1,16,2,100,i,0.91,97,-1.4
COC(=O)[C@H](Cc1ccccc1)NC(=O)[C@@]1(C)C[C@@H]1[C@@H](NC(=O)OCc1ccccc1)c1ccccc1,10,-1,115,i,0.78,102,-0.5
COc1cc(OC)c(OC)cc1CNCCSc1nnnn1C,/,-2,/,i,1.1,106,/
Cc1cccc(-n2c(Cc3cc(=O)[nH]c(=O)[nH]3)nnc2SCC(=O)NCC2CCCO2)c1 (centres undefined),/,-4,/,i,0.9,98,-0.7
CSc1ccc(CN2CCCC(CNC(=O)c3ccc(F)cc3)C2)cc1 (centres undefined),/,1,/,i,1.2,95,/
CSc1cccc(NC(=O)CN(c2cc(C)ccc2C)S(C)(=O)=O)c1,-40,5,106,i,0.85,143,-2.8
Cc1ccc(S(=O)(=O)NN2C(=O)c3ccccc3NC2c2ccccn2)cc1 (centres undefined),-83,-9,78,i,1,106,/
Cc1cc(C)c(C2=CSC3=NS(=O)(=O)CCN23)c(C)c1,/,-8,/,i,0.97,95,/
CCOc1ccccc1NC(=O)CSc1nnc2c(CC)c(C)nc(N)n12,13,-7,59,i,1,108,1.1
CCN(CC)CCC(c1ccc(N(C)C)cc1)c1c(OC)cc(OC)c2c(-c3ccccc3)cc(=O)oc12 (centres undefined),/,/,/,i,0.7,105,/
COc1ccc(OC)c(NC(=O)c2cccnc2Sc2cc(C)ccc2C)c1,/,-9,/,i,0.89,101,1.0
C=CCNC(=O)c1ccccc1NC(=O)c1ccccc1N(C)S(C)(=O)=O,24,-9,83,i,0.66,99,/
COc1ccc(NC(=O)CN2CCC(NC(=O)C3CCCCC3)CC2)cc1,0,-5,65,i,0.86,113,-0.2
CC(Oc1ccccc1Cl)C(=O)N(Cc1ccco1)C1CCS(=O)(=O)C1 (centres undefined),24,-9,103,i,0.83,105,-1.7
O=C(Nc1cccc(Cl)c1)OCCN1CCN(Cc2ccccc2)CCC1=O,-10,5,101,i,0.93,106,0.0
Cc1nn(C)c(C(=O)N/N=C/c2cc3c(cc2Br)OCO3)c1Br,/,-3,/,i,0.91,108,-0.3
COC(=O)c1sccc1NC(=O)CC1C(=O)NCCN1C(=O)c1ccc(F)cc1 (centres undefined),/,/,/,i,1.2,97,/
CC(=O)c1c(C)[nH]c(C(=O)CSc2nnc(-c3ccco3)o2)c1C,/,0,/,i,0.91,100,/
Cc1ccc(NC(=O)CSc2nnc(-c3cccnc3)s2)cc1,-9,-1,42,i,1,129,-3.1
COc1ccc2c(C)cc(Sc3nnnn3-c3ccccc3)nc2c1,/,2,/,i,1.1,99,0.8
COc1ccc(Oc2nc3c(c(=O)n(C)c(=O)n3C)n2Cc2cccc(OC)c2)cc1,/,-9,/,i,1,96,-2.2
COCCCNC(=S)NNC(=S)Nc1cccc(Cl)c1,/,/,/,i,0.9,101,/
CSc1nc(-c2ccccc2)nc(N)c1C(C)=O,/,-4,/,/,/,131,-2.7
CCC1=C2CC[C@H]3C(=O)N(C)C(=O)[C@H]3[C@H]2[C@@]2(Cc3ccccc3)C(=NCC(=O)OC)OC(=O)N2C1=O,/,/,/,i,1.2,100,/
CC1(C)CNc2cc([N+](=O)[O-])ccc2S1,/,-5,/,i,1.1,105,/
CC(=O)N(CCC(c1ccco1)C(C)C)Cc1ccc(OC(C)C)cc1 (centres undefined),/,/,/,i,0.93,96,/
Cn1cc([N+](=O)[O-])c(C(=O)NCc2cc3ccccc3[nH]2)n1,40,-6,124,i,0.93,104,0.5
Cc1ccc(NS(=O)(=O)c2ccc(C(=O)N3CCCN(C)CC3)cc2)cc1,/,6,/,i,0.77,102,-0.2
COc1ccc(NC(=O)c2cccc([N+](=O)[O-])c2)cc1,-12,-9,163,i,1,90,/
NC(=O)NC(=O)CSc1nc2cc([N+](=O)[O-])ccc2n1-c1cccc(C(F)(F)F)c1,/,/,/,i,0.9,103,/
COc1ccc(/C=C\C(=O)Oc2cccc(/C=N/NC(=O)Cc3ccc(OC)c(OC)c3)c2)cc1,/,0,/,i,0.95,95,0.8
N#CC(C#N)=C1C=CC=CN1/C(=C\c1ccco1)C(=O)c1ccc(-c2ccccc2)cc1,/,-2,/,/,/,100,0.2
COc1ccc(C(=O)N/C(=C/c2cccs2)C(=O)NCCCn2ccnc2)cc1OC,17,0,94,i,0.84,99,-1.4
Cc1ccc(C(C(=O)NC2CCCCC2)N2CCCC2)cc1 (centres undefined),/,-2,/,i,1,117,-0.8
CCN(CC)S(=O)(=O)c1cc(C(=O)OCC(=O)Nc2ccc(-c3nc4ccc(C)cc4s3)cc2)ccc1F,-17,-4,115,i,0.78,99,-0.8
c1ccc(-n2ncc3c2ncn2nc(-c4ccco4)nc32)cc1,-9,-3,116,i,0.98,99,5.0
COc1ccc(/C=C/C(=O)c2cc3cccc(OC)c3oc2=O)cc1,62,7,117,/,/,102,/
Nc1[nH]n(-c2ccccc2)c(=O)c1N=Nc1ccccc1,/,/,/,i,0.95,88,/
CCCCC(=O)N1C/C=C\C(c2ccc(OC)cc2)N(Cc2ccc(F)cc2)C(=O)[C@H]1Cc1ccccc1 (some centres undefined),/,/,/,i,0.87,98,/
c1ccc(-c2cn3c(n2)CCC3)cc1,-32,-2,121,i,0.83,100,-1.7
Cc1ccc(-c2cc(Cc3ccc(F)cc3)c(=O)[nH]n2)cc1,/,/,/,i,1,99,/

An excerpt from above in order of the RGS16-Gao HTS value, highest first:
| mol | RGS16-Gao HTS |
| --- | --- |
| Cn1cc([N+](=O)[O-])c(C(=O)NCc2cc3ccccc3[nH]2)n1 | 104 |
| c1ccc(-c2cn3c(n2)CCC3)cc1 | 100 |
| CCN(CC)S(=O)(=O)c1cc(C(=O)OCC(=O)Nc2ccc(-c3nc4ccc(C)cc4s3)cc2)ccc1F | 99 |
| Nc1[nH]n(-c2ccccc2)c(=O)c1N=Nc1ccccc1 | 88 |

5 compounds drawn at random from the list so far:
Compound,Insulin prom inh,PKD1 kinase inh,Insulin prom inh cell count,HSV augment,HSV augment primary fold,RGS16-Gao HTS,GALR2 ag
CCCCC(=O)N1C/C=C\C(c2ccc(OC)cc2)N(Cc2ccc(F)cc2)C(=O)[C@H]1Cc1ccccc1 (some centres undefined),/,/,/,i,0.87,98,/
COc1ccc(/C=C\C(=O)Oc2cccc(/C=N/NC(=O)Cc3ccc(OC)c(OC)c3)c2)cc1,/,0,/,i,0.95,95,0.8
COc1ccc(C(=O)N/C(=C/c2cccs2)C(=O)NCCCn2ccnc2)cc1OC,17,0,94,i,0.84,99,-1.4
COc1ccc(NC(=O)c2cccc([N+](=O)[O-])c2)cc1,-12,-9,163,i,1,90,/
COc1ccc(/C=C/C(=O)c2cc3cccc(OC)c3oc2=O)cc1,62,7,117,/,/,102,/

The list goes on:
Compound,Insulin prom inh,PKD1 kinase inh,Insulin prom inh cell count,HSV augment,HSV augment primary fold,RGS16-Gao HTS,GALR2 ag
O=C(Nc1ccncc1)c1cc(F)cc(F)c1,3,-11,62,i,1,105,-3.6
CCC(=O)Nc1sc2c(c1C#N)CCCCC2,7,2,164,i,0.99,99,-2.3
CCN1CCC(NC(=O)Nc2ccc(F)cc2)CC1,/,-1,/,i,0.98,106,/
O=C(Cc1cccc2ccccc12)Nc1ccccc1C(=O)O,-14,-2,142,i,0.93,99,-1.4
Cn1c(=O)c([N+](=O)[O-])c(NCC(O)c2ccccc2)c2ccccc21 (centres undefined),-5,4,58,i,0.98,93,-1.7
CC1(C)CC(=O)C(C=NC2CC(C)(C)NC(C)(C)C2)=C(O)C1,-12,0,152,i,0.92,102,-2.1
COc1cc(NC(=O)COc2ccc(Cl)cc2)ccc1-c1cc2ccccc2oc1=O,30,2,132,i,0.68,103,-1.5
COc1ccc(-c2noc(CCC(=O)NCCCN3CCN(c4ccccc4F)CC3)n2)cc1,-67,-3,95,i,1,103,/
O=C(Cn1nnc2ccccc2c1=O)Nc1cc(C(F)(F)F)ccc1N1CCOCC1,-36,-7,99,i,0.76,103,0.7
CN1C(=O)C(N=Nc2ccccc2C(=O)O)N(C)C1=S (centres undefined),/,-9,/,?,/,101,/
CC(=O)c1cccc(NC(=O)NC(C)c2ccncc2)c1 (centres undefined),-130,-6,113,i,0.85,89,-3.4
CCOC(=O)CNC(=O)CSc1nc(N(C)C)nc(N2CCOCC2)n1,31,-5,156,i,1,103,-1.2
CC(C)c1ccc(NC(=S)NN2C(C)CCCC2C)cc1 (centres undefined),21,-1,62,i,0.94,104,/
O=C(Cc1ccccc1)Nc1ccc2oc(-c3ccncc3)nc2c1,3,-13,103,i,0.95,92,-1.2
Cn1c(=O)[nH]c(=O)c2c1nc1n2CCCN1Cc1ccccc1,/,/,/,i,0.88,100,/
Cc1cc(OC(F)F)ccc1NC(=O)Nc1ccc([N+](=O)[O-])cc1,/,-11,/,i,0.88,117,-0.3
COc1cc(NC(=O)COC(=O)CNC(=O)c2ccc(Cl)cc2)c(C)cc1[N+](=O)[O-],-60,-7,131,i,0.93,104,-0.5
O=C(NCCCN1CCC(Cc2ccccc2)CC1)C1CC(=O)N(C2CCCCCC2)C1 (centres undefined),-42,9,105,i,0.88,99,-1.8
Cn1c(N)nc2ccccc2c1=O,/,/,/,i,0.99,101,/
CC(/C=N/NC(=O)Cc1cccs1)=C\c1ccco1,21,-15,123,i,0.84,93,-1.3
O=C(Nc1ccc(Cl)cc1)N1CCC(c2ccccc2)C1 (centres undefined),/,0,/,i,0.89,97,/
